High-throughput results deposited in PubChem by National Center for Advancing Translational Sciences (NCATS).
VACV mCherry inh = qHTS for Stage-Specific Inhibitors of Vaccinia Orthopoxvirus: mCherry Reporter Primary qHTS; Vaccinia virus mCherry reporter infection, fluorescence; about a quarter of the inactives have no number; Potency, µM (top dose mostly 36.5 µM), inactives show at the highest dose activity change, negative = inhibition, hits mostly inhibitors; 310,000 tested, 0.63% active; active = well fitted inhibition curve with a large enough effect; inconclusive = small, poorly fitted or top-dose-only effect; inactive = no such curve, though single readings can be large or run the other way; tested in A549 cells; further: nearly all actives have a fitted effect of over 35% in size; inactives centre near -10
VACV Venus inh = qHTS for Stage-Specific Inhibitors of Vaccinia Orthopoxvirus: Venus Reporter Primary qHTS; Vaccinia virus Venus reporter expression, fluorescence; Potency, µM (doses to about 36.5 µM), for inactives: at the top dose activity change, negative = inhibition, hits mostly inhibitors; 330,000 tested, 0.46% active; active means well fitted inhibition curve with a large enough effect; inconclusive means small, poorly fitted or top-dose-only effect; inactive means no such curve, though single readings can be large or run the other way; tested in A549 cells; further: nearly all actives have a fitted effect of over 30% in size; inactives centre near -10
An asterisk follows results filed as active; i = inactive; u = inconclusive; x = no result given. On the % scale 0 is the no-effect control and ±100 the full control effect; potency means the concentration at half of the fitted maximal effect.

molecule | VACV mCherry inh | VACV Venus inh
Cc1cc(C)cc(NC(=O)CCN2C(=O)c3ccccc3C2=O)c1 | -15% | 3%
CC(=O)C1=C(C)NC(=O)NC1c1ccccc1OCC(=O)NCCc1ccccc1 (configuration not stated) | -12% | -5%
O=C(Oc1cccc2cccnc12)c1ccco1 | x | -11%
O=C(Nc1cc(S(=O)(=O)N2CCCCC2)ccc1N1CCOCC1)c1ccc(F)cc1 | -20% | -22%
O=C(Oc1ccccc1F)c1ccc2c(=O)n3c(nc2c1)CCC3 | 2% | 0%
CCN1C[C@@H]2[C@@H]3C(=O)N(Cc4ccccc4)C(=O)[C@@H]3[C@](Cc3ccccc3)(C(=O)OC)N2C1=NC | -15% | 7%
CCCCC1N2CC3([N+](=O)[O-])CN1CC([N+](=O)[O-])(C2)C3(C)C (configuration not stated) | -3% | -17%
CC1(C(=O)NS(=O)(=O)c2ccccc2Cl)CCN1C(=O)C/C=C/c1ccccc1 (configuration not stated) | 6% | -2%
COC(=O)c1cc(C(=O)OCC(=O)NCc2ccc3c(c2)OCO3)cc([N+](=O)[O-])c1 | -13% | -7%
CCC(C)N(C(=O)COC(=O)CSc1ccc([N+](=O)[O-])cc1)C1CCS(=O)(=O)C1 (configuration not stated) | -18% | -13%
Cc1ccc(/C=C/C(=O)Nc2ccc(Cl)cc2Cl)cc1 | -1% | 14%
CSCC[C@H](NC(=O)OC(C)(C)C)c1nnc(SCc2cccc(F)c2)o1 | x | -28%
CC(=O)c1ccc(NC(=O)CN(C)S(=O)(=O)c2cc3c(cc2C)NC(=O)CO3)cc1 | 0% | 8%
Cc1ccc(NC(=O)C2CCCC2)cc1Cl | 14% | 20%
COc1ccc(C(=O)C=Cc2ccc(OCc3ccccc3)c(OC)c2)cc1OC | u | 11µM*

The list goes on.
molecule | VACV mCherry inh | VACV Venus inh
Cc1ncc2c(c1CNS(=O)(=O)N(C)C)CCN(C(=O)c1ccc(F)cc1Cl)C2 | -11% | -7%
Cn1c(SCC(=O)Nc2cc(Cl)cc(Cl)c2)nnc1-c1ccc2nonc2c1 | i | -9%
CC1CCN(c2ccc([N+](=O)[O-])cn2)CC1 | 0% | -6%
CN1CCc2c1nc1ccccc1c2NC(=O)CN1CCCC1 | -1% | -6%
S=c1[nH]nc(-c2cccs2)n1C1CCCCC1 | -16% | -8%
Cc1ccc(C(=O)N2CCN(c3ccc([N+](=O)[O-])c(N4CCOCC4)c3)CC2)cc1 | u | u
CCOC(=O)c1ccccc1NC(=O)COC(=O)C1CCN(S(=O)(=O)c2ccccc2C(=O)OC)CC1 | -9% | 2%
CN(CCC1CCOCC1)C(=O)CC1C(=O)NCCN1Cc1ccccc1F (configuration not stated) | -2% | -14%
COc1ccc2nc(NCCO)[nH]c2c1 | x | 8%
COc1ccc(S(=O)(=O)N2CCC3(CC2)OCCN3S(=O)(=O)c2ccccc2)cc1OC | -1% | -13%
O=c1c2ccc(Cl)cc2nc2n1CC/C2=C\c1cccc(O)c1 | u | -21%
CC(C)CNC(=O)C(=O)NCC(c1ccc2c(c1)OCO2)N1CCOCC1 (configuration not stated) | -19% | -12%
Cc1ccc(NS(=O)(=O)c2cccc(C(=O)O)c2)cc1S(=O)(=O)N1CCCCC1 | -3% | -7%
COCCn1nnnc1C(c1cc2c(C)cc(C)cc2[nH]c1=O)N1CCCCCC1 (configuration not stated) | -6% | -15%
Cc1cccc(NC(=S)NC(=O)c2ccc(Br)o2)c1 | -24% | -16%

(listing goes on)
molecule | VACV mCherry inh | VACV Venus inh
CCCN(C)C1CN(Cc2cn(CCCOC)nn2)S(=O)(=O)C1 (configuration not stated) | i | 3%
COC(=O)[C@H]1C[C@@H](c2ccccc2)[C@H](C)C1(C)C | i | -1%
Cc1ccn(S(=O)(=O)c2ccc(C(C)(C)C)cc2)n1 | i | -6%
CCNC(=O)C1(C)CCN(C(=O)c2cccc(C(F)(F)F)c2)C1 (configuration not stated) | 12% | 2%
COc1ccc(-n2c(SCC(=O)Nc3cccc(S(N)(=O)=O)c3)nc3ccccc3c2=O)cc1OC | i | -13%
COc1cccc(-c2ccc(NC(=O)C3CCCN(Cc4ccccn4)C3)cc2)c1 (configuration not stated) | -9% | -14%
Cc1ccc(S(=O)(=O)NC(N)=NCCc2ccc(Cl)cc2)cc1 | -21% | -10%
COc1ccc(C(=O)N2CCCC(c3cc(C(=O)NCc4ccc(F)cc4)no3)C2)cc1 (configuration not stated) | 2% | -6%
CCCCn1c(N)c(N(CCC(C)C)C(=O)C2CSC3(C)CCC(=O)N23)c(=O)[nH]c1=O (configuration not stated) | -4% | -6%
CCc1ccc(S(=O)(=O)N/N=C(/C)c2ccncc2)cc1 | i | -11%
CCCCNc1c(-c2ccc(OC)c(SC3CCCCC3)c2)nc2cc(C)ccn12 | -49% | u
Cc1cc(NC(=O)CSc2nnc(-c3cccnc3)n2C2CCCCC2C)no1 (configuration not stated) | x | -13%
O=C(CCCC(=O)c1ccccc1)Nc1ccc(F)cc1 | -16% | -16%
CCOc1cc(/C=C/c2cccc[n+]2C)ccc1OCC(=O)Nc1ccc(C)cc1 | -10% | -12%
CCOC(=O)CCc1c(C)n(CC)c2cc(-c3ccccc3OC)nn2c1=O | -16% | -8%

Later entries.
molecule | VACV mCherry inh | VACV Venus inh
CC(=O)OCC(=O)C1(O)CCC2C3CC(F)C4=CC(=O)CCC4(C)C3C(=O)CC21C (configuration not stated) | -19% | 7%
COc1ccc(NC(=O)CCNS(=O)(=O)c2ccc3c(c2)c(=O)n(C)c(=O)n3C)c(OC)c1 | i | -3%
CCOc1ccc2nc(Cl)c(C3CC(c4ccco4)=NN3S(=O)(=O)c3ccccc3)cc2c1 (configuration not stated) | -11% | -8%
CS(=O)(=O)N(CC(=O)NCCSCc1c(F)cccc1Cl)c1ccc2c(c1)OCO2 | x | -25%
CCn1c(SCC(=O)Nc2nc3ccccc3s2)nnc1-c1ccc(Br)cc1 | 6% | 9%
Cc1cccc(-n2ncc3c2CCCC3NC(=O)Cn2cccn2)c1C (configuration not stated) | -1% | -10%
O=C(Cc1ccccc1)NCC(=O)OCC(=O)c1cccc2ccccc12 | -20% | -7%
COc1cc2ccccc2cc1C(=O)NCC(c1cccs1)N(C)C (configuration not stated) | -16% | -17%
O=C(NC1CCCCCCC1)c1ccc(S(=O)(=O)N2CCCC2)cc1 | -13% | -16%
O=C(CN(C(=O)c1csnn1)c1ccccc1)NCc1ccc2c(c1)OCO2 | -22% | -21%
CC1(C(=O)Nc2ccc(Cl)cc2)Cc2c(-c3ccc4c(c3)OCO4)ccnc2O1 (configuration not stated) | -15% | -8%
CCOC(=O)CSc1cc(CS(C)(=O)=O)nc(-c2ccccn2)n1 | -10% | 7%
CCCCNC(=O)c1nc(C2CCN(S(=O)(=O)c3ccc(F)c(F)c3)CC2)oc1-c1ccccc1 | i | -13%
COc1cc(NC(=O)C/C(C)=N/NC(=O)c2ccccn2)c(OC)cc1Cl | -10% | -23%
O=C(NCCCN1CCOCC1)c1cc2nc(-c3ccco3)cc(C(F)(F)F)n2n1 | -4% | -2%

Carrying on:
molecule | VACV mCherry inh | VACV Venus inh
CCCCCCCCNCCS(=O)(=O)NCc1ccccc1OC | -15% | u
CCOC(=O)N1CCC2(CC1)NC(=O)c1ccccc1N2 | -3% | 2%
COC(=O)c1c(-c2ccc(OC)cc2)sc2cc(OC)c(OC)cc12 | u | -18%
CCOC(=O)c1ccccc1NC(=O)c1c2c(nc3ccccc13)C(=O)N(C1CCCCC1)C2 | -3% | 3%
Cc1ccccc1NC(=O)/C=C/c1cccc(C(F)(F)F)c1 | -5% | -11%
CCCc1c(-c2ccc(Cl)cc2)ncn1Cc1ccccc1OC | -10% | -16%
Cc1ccc(C(=O)NNC(=O)C2CCN(Cc3ccc(Cl)c(Cl)c3)CC2)cc1 | x | -17%
O=C1NC(c2cn(-c3ccccc3)nc2-c2cccs2)C(C(=O)c2cccnc2)C(O)(C(F)(F)F)N1 (configuration not stated) | x | -16%
CCOc1cccc(=NC2CCCCC2)c2c(C)n(C)c(C)c12 | 20µM* | u
COc1ccc(CN2CCCC2C(=O)Nc2ccc(OC)c(OC)c2)cc1OC (configuration not stated) | -11% | -9%
CC(C)N(C(=O)[C@H]1C[C@H](CC(=O)NCc2ccco2)C(=O)N2CCc3c([nH]c4cc(-c5ccco5)ccc34)[C@]12C)C(C)C | -27% | u
NS(=O)(=O)c1cccc(NC(=O)COC(=O)CCc2ccccc2)c1 | -15% | -8%
COc1cc(C(C)=O)ccc1OCC(O)CN1CCN(c2ccc(F)cc2)CC1 (configuration not stated) | -3% | -6%
CCCCNC(=S)NNc1c(Cl)cc(Cl)cc1Cl | 2% | 1%
O=C(C[C@H]1C(=O)N(CCc2ccccc2)C[C@@H]1c1ccccc1)Nc1ccccc1 | i | -11%

Remaining list, next part:
SMILES,VACV mCherry inh,VACV Venus inh
Oc1ccc(-c2nccc(-c3ccc(Cl)cc3)n2)cc1,u,-28%
CCc1ccc(N2C(=O)CN(Cc3cc(OC)c(OC)c(OC)c3)C2=S)cc1,-30%,-13%
N#Cc1ccccc1S(=O)(=O)NC(=O)[C@H]1O[C@@H](n2cnc3c(N)ncnc32)[C@H](O)[C@@H]1O,16%,0%
C=CCNC(=O)c1sccc1Oc1ccc(F)cc1[N+](=O)[O-],-13%,-21%
O=C(c1cccc2nc3ccccc3nc12)N1CCOCC1,-14%,2%
CCOc1ccccc1NC(=O)N1CCC(n2nnc3cc(C)ccc32)CC1,-24%,-11%
CCCC(=O)Nc1nnc(SCc2cc(=O)n3cccc(C)c3n2)s1,-3%,-4%
CCOC(=O)C1CCN(C(=O)Cn2c(-c3cccs3)cc3cc(Cl)ccc32)CC1,-3%,-2%

Remaining list, next part.
SMILES,VACV mCherry inh,VACV Venus inh
Cc1nc2ccc(S(=O)(=O)NC(C(=O)N3CCN(c4ccc(Cl)cc4)CC3)C(C)C)cc2s1 (configuration not stated),-6%,-9%
NC(=O)c1nsc(C(=O)N(Cc2cccnc2)C(C(=O)NC2CCCC2)c2ccc(F)cc2)c1N (configuration not stated),6%,4%
O=C(CCNC(=O)c1ccco1)NNC(=O)c1ccc(Br)cc1,i,-8%
CCOc1ccc(NC(=O)c2c(NCc3cccc(OC)c3OC)sc3c2CCC3)cc1,-9%,-12%
CC(=O)Nc1cccc(NC(=O)C(=O)NCCc2csc3nc(-c4ccccc4F)nn23)c1,-6%,14%
COc1ccc(NC(=O)C2=C(C)Nc3ncnn3C2c2ccc(C)o2)cc1 (configuration not stated),-4%,3%
CC(O)C(NC(=O)OCc1ccccc1)C(=O)OCc1ccccc1 (configuration not stated),-14%,-14%
O=C(CN(Cc1ccc(F)cc1)S(=O)(=O)c1ccc(S(=O)(=O)N2CCOCC2)cc1)Nc1ccccc1,-14%,-6%

7 compounds out of the list, sorted by length of the SMILES, falling.
SMILES,VACV mCherry inh,VACV Venus inh
COc1ccc(NC(=O)CCNS(=O)(=O)c2ccc3c(c2)c(=O)n(C)c(=O)n3C)c(OC)c1,i,-3%
CC(=O)C1=C(C)NC(=O)NC1c1ccccc1OCC(=O)NCCc1ccccc1 (configuration not stated),-12%,-5%
COc1ccc(C(=O)C=Cc2ccc(OCc3ccccc3)c(OC)c2)cc1OC,u,11µM*
COC(=O)c1c(-c2ccc(OC)cc2)sc2cc(OC)c(OC)cc12,u,-18%
O=C(NC1CCCCCCC1)c1ccc(S(=O)(=O)N2CCCC2)cc1,-13%,-16%
COc1cc2ccccc2cc1C(=O)NCC(c1cccs1)N(C)C (configuration not stated),-16%,-17%
S=c1[nH]nc(-c2cccs2)n1C1CCCCC1,-16%,-8%

Continued.
SMILES,VACV mCherry inh,VACV Venus inh
COC[C@@H]1CCCN1c1ccc2c(c1)O[C@H](COCc1ccccc1)CN([C@H](C)c1ccccc1)S2(=O)=O,13%,-4%
CCc1ccc(-c2csc3nc[nH]c(=O)c23)cc1,u,-16%
O=C(CN1CCCCCC1)Nc1ccc(Br)cc1[N+](=O)[O-],-11%,-3%
COc1ccc(-c2cc(C(F)(F)F)nc(S(=O)(=O)CCC(=O)N3CCOCC3)n2)cc1,x,-3%
COc1ccc(C(=O)NNC(=S)NC(=O)c2cccc([N+](=O)[O-])c2)cc1,-16%,-22%
CCN1C(=NCCc2c[nH]c3ccccc23)N[C@@H](c2ccccc2)[C@H](C(=O)OC)[C@H]1C,-1%,-6%
C=CCC[C@@H](Cc1ccc(F)cc1)C(=O)OC[C@@H](NC(=O)[C@@H](CC=C)CC(=O)N[C@@H](CO)Cc1ccccc1)C(C)(C)C,i,u
Cc1cccc(NC(=S)NC23CN4CN(CN(C4)C2)C3)c1,i,-7%

Remaining list, next part.
SMILES,VACV mCherry inh,VACV Venus inh
CCNC(=O)COC(=O)/C=C/c1cccc(F)c1,-17%,-9%
CN(C)CCC(C(=O)c1ccccc1)c1ccccn1 (configuration not stated),-14%,-12%
Cc1ccccc1-c1cc(C(=O)N2CCCC2)c2ccccc2n1,-9%,-13%
Cc1ccc2nc(-c3ccc4c(c3)OCCO4)cc(C(=O)O)c2c1,i,-3%
COc1ccc(Cl)cc1N(CC(=O)NC(C(C)C)C(C)C)S(C)(=O)=O,i,-12%
CCSc1n[nH]c(=O)[nH]c1=O,-13%,-8%
OCC[C@H]1C[C@H](O)[C@@H](O)[C@]2(OCCc3ccccc32)O1,i,-5%

At a glance, 2 of the compounds above.
SMILES,VACV mCherry inh,VACV Venus inh
CCSc1n[nH]c(=O)[nH]c1=O,-13%,-8%
OCC[C@H]1C[C@H](O)[C@@H](O)[C@]2(OCCc3ccccc32)O1,i,-5%
